From PubChem
RGS16-Gao HTS: modulators of RGS16 binding to Galphao, primary screen, biochemical, human proteins, multiplexed bead flow cytometry. binding response (% of control), % at 10 µM. 220,000 compounds, 0.38% hits. bead-based flow cytometry RGS16-Galphao binding, fluorescence; actives lie on both sides. Regulator of G-protein signaling 16 (Homo sapiens) + Guanine nucleotide-binding protein …;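 active means below 25% or above 175%, edge rows of some plates excepted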;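 further: Galphao activated by GDP with aluminum fluoride before binding; 100% = wells without compound and 0% = beads without RGS; some results beyond the cut were filed as inactive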
PKD1 inh: inhibitors of human PKD1 kinase, biochemical, fluorescence polarization; PKD1 kinase fluorescence polarization assay; inhibition, %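 (about 10 µM by stock and volumes)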; 200,000 compounds, 0.056% hits;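 active means inhibition of 50% or more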;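 further: controls were vehicle for no effect and a reference inhibitor for full effect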
Target sequence (Q15139 whole entry, looked up): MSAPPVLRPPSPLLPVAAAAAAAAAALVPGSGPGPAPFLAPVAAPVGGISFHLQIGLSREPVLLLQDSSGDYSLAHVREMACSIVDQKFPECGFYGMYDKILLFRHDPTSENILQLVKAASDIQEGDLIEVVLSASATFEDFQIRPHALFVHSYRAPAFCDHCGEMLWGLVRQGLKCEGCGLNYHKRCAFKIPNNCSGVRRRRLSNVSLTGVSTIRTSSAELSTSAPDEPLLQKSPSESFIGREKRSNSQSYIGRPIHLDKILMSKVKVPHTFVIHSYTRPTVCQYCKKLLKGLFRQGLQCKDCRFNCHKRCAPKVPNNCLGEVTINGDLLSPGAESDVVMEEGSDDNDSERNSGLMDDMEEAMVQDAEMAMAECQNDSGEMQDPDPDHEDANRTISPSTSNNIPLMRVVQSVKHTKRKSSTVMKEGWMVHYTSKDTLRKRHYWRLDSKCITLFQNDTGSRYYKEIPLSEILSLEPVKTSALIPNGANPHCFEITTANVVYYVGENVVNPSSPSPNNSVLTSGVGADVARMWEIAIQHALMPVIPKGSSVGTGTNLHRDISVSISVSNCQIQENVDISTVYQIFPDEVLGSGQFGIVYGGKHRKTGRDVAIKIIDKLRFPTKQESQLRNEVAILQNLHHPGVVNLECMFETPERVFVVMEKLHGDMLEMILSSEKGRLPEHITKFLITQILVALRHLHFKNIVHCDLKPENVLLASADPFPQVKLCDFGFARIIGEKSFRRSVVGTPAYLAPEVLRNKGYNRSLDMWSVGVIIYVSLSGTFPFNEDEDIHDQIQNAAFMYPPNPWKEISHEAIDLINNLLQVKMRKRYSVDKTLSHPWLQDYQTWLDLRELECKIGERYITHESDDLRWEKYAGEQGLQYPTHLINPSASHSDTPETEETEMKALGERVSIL
GALR2 ag: GALR2 receptor agonists, primary screen, cell-based; GALR2-expressing cells, agonist activation read-out; activation, %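 (tested at 5 µM)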; Galanin receptor type 2 (Homo sapiens), O43603; AID 803, 2007; 140,000 compounds, 0.48% hits;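 active means above mean plus 3 SD of all compounds, about 5% in these data, not always enough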;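 further: 0% = vehicle buffer wells and 100% = reference agonist at full effect; tested in CHO reporter cells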
INS promoter inh: inhibitors of insulin promoter-driven GFP, primary screen, imaging, TRM-6 cells (human fetal islet line), eGFP reporter, cell count. reporter expression induced with tamoxifen. inhibition, % at 2 µM. 130,000 compounds, 0.9% hits. AID 1273, 2008;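 active means inhibition above the mean plus 3 SD, with well images judged a real hit on visual review, cut at about 60% in these data, passing the limit was not always enough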
HSV replic up: enhancers of HSV replication in host cells, fold increase, host cell viability; HSV replication augmentation in cells; maximum fold increase; 220,000 compounds, 0.005% hits; AID 1956, 2009;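 active means peak rise of 1.5-fold or more in the series; tested in PC3 cells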;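 further: first round at 10 µM; read as green reporter fluorescence; hits show the peak of a series up to 25 µM; 1 = signal of infected wells without compound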
INS promoter inh cell count: second read-out of INS promoter inh, no call of its own (marks repeat the call); normalized cell count, %; measured here: cell count, toxicity; reference of the scale not given here;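 cells exposed to compound for 48 h; stained nuclei by imaging scaled within each plate; lower means fewer cells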
HSV replic up primary fold: recorded beside HSV replic up, whose call it bears; fold increase; compound at 10 µM; measured here: primary screen fold increase 10 uM; tested in PC3 cells;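 GFP signal in the first replicate; 1 = infected wells without compound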
* hit, by the source's call; i = inactive; / = no result given.

SMILES	RGS16-Gao HTS	PKD1 inh	GALR2 ag	INS promoter inh	INS promoter inh cell count	HSV replic up	HSV replic up primary fold
Cc1ccc(-c2cc(-c3nnc(SCC(=O)NC(C)C(C)C)n3N)c3ccccc3n2)cc1 (centres undefined)	104	-2	-2.4	-2	136	i	0.86
O=C(COC(=O)c1ccco1)NCc1ccc(Cl)cc1	102	-2	/	43	110	i	0.96
C/C(=N\NC(=S)NCCc1ccccc1)c1ccc(C)cc1	108	-5	-0.5	56	112	i	1
COc1ccc2c(c1)CCc1c(C(=O)N3CCCc4ccccc43)noc1-2	99	0	-3.1	-100	133	i	0.77
N#CCC(N)=C(C#N)C#N	105	1	-0.1	-19	126	i	0.83
COc1ccc(OC(=O)c2cc(S(=O)(=O)N3CCCC3)ccc2Cl)cc1	80	2	-1.2	-9	134	/	/
COc1ccc(CNC(=S)Nc2ccccc2C)cc1	88	-5	-4.3	40	30	i	0.89
Cn1c(=O)c2c(nc(NCC3CCCO3)n2Cc2cccc(Br)c2)n(C)c1=O (centres undefined)	101	-3	-4.0	-6	91	i	0.83
COc1ccc(N2COC3c4cccc5cccc(c45)C32)cc1 (centres undefined)	103	-2	-2.4	-153	65	i	0.99
CCCc1noc2c1C(c1ccoc1)C(C#N)=C(N)N2 (centres undefined)	106	0	-0.5	/	/	i	0.92
O=C(NCC1CCCO1)C(c1ccc(F)cc1)N(Cc1ccc(F)cc1)C(=O)Cn1nnc(-c2cccs2)n1 (centres undefined)	94	-4	-2.0	-197	81	i	0.73
CC(=O)Nc1ccc2c(c1)N(C(=O)CN(C)C)c1ccccc1CC2	109	-2	-2.3	-307	47	i	0.79
CCC(C(=O)NC(C)(C)C)N(Cc1cccs1)C(=O)CNS(=O)(=O)c1ccccc1 (centres undefined)	99	/	/	/	/	i	0.92
CC(=O)c1cccc(S(=O)(=O)N2CCN(c3nc4cc(C)cc(C)c4cc3C#N)CC2)c1	97	-10	1.9	-75	220	/	/
CC(C)=NOCc1ccc(-c2cn([C@@H]3COC[C@H]3O)nn2)cc1	103	-5	-1.8	-5	101	i	1

3 entries out of the list, arranged by SMILES length, ascending:
SMILES	RGS16-Gao HTS	PKD1 inh	GALR2 ag	INS promoter inh	INS promoter inh cell count	HSV replic up	HSV replic up primary fold
CCCc1noc2c1C(c1ccoc1)C(C#N)=C(N)N2 (centres undefined)	106	0	-0.5	/	/	i	0.92
Cn1c(=O)c2c(nc(NCC3CCCO3)n2Cc2cccc(Br)c2)n(C)c1=O (centres undefined)	101	-3	-4.0	-6	91	i	0.83
O=C(NCC1CCCO1)C(c1ccc(F)cc1)N(Cc1ccc(F)cc1)C(=O)Cn1nnc(-c2cccs2)n1 (centres undefined)	94	-4	-2.0	-197	81	i	0.73

Continued:
SMILES	RGS16-Gao HTS	PKD1 inh	GALR2 ag	INS promoter inh	INS promoter inh cell count	HSV replic up	HSV replic up primary fold
CN(CCC#N)C(=O)CC1(Cc2ccccc2)CCOC(C)(C)C1 (centres undefined)	106	/	/	/	/	i	1.1
COc1ccc(C(CC(=O)Nc2nccs2)n2cccc2)cc1 (centres undefined)	101	4	-3.0	14	101	i	0.88
O=C(NC(O)C(=O)c1cccs1)c1cccnc1 (centres undefined)	98	1	-1.1	/	/	i	1.1
O=C(C1CCCN(Cc2ccc3c(c2)OCO3)C1)N1CCCC1 (centres undefined)	101	7	-1.4	/	/	i	0.92
Nc1c(C(=O)NC2CCCC2)c2nc3ccccc3nc2n1/N=C/c1ccco1	97	26	-2.0	-6	91	i	0.91
COc1ccc(CCn2nnnc2CN2CCN(C(=O)c3ccco3)CC2)cc1OC	96	-6	/	61	90	i	1
NNC(=O)C(Cc1c[nH]c2ccccc12)NC(=O)c1ccccc1 (centres undefined)	99	/	/	/	/	i	1
COC(=O)C1C(=O)C=C(N2CCOCC2)CC1(C)C (centres undefined)	113	-13	-1.9	17	99	i	0.9
COCCCN1CN(S(=O)(=O)c2cccs2)c2nc3ccccc3nc21	102	/	/	/	/	i	1.2
CCOc1ccc(CCNC(=O)Cn2c(-c3nonc3N)nc3ccccc32)cc1OCC	102	-7	-0.3	-42	69	i	0.87
Cc1ccc2c(CSc3nncs3)cc(=O)oc2c1	126	-10	-2.4	/	/	i	0.79
COc1ccc(NC(=S)NCCCCCC(=O)C[N+](=O)[O-])cc1	101	4	/	/	/	i	1
COc1nc(NC2CCCCC2)nc(N2CCCCCC2)n1	108	1	-0.9	43	133	i	0.96
CCN(CC)S(=O)(=O)c1ccc(C(=O)OCC(=O)Nc2ccc(-c3nc4ccc(C)cc4s3)cc2)cc1	94	-6	-1.3	9	84	i	0.85
O=C(Nc1nc(-c2ccc(F)cc2)cs1)c1ccc(N2C(=O)CCC2=O)cc1	108	-8	0.4	-22	86	/	/

Quoted from the listing.
For RGS16-Gao HTS, `CCOc1ccc(CCNC(=O)Cn2c(-c3nonc3N)nc3ccccc32)cc1OCC` has the entry 102
For GALR2 ag, `COC(=O)C1C(=O)C=C(N2CCOCC2)CC1(C)C` (centres undefined) has the entry -1.9
For HSV replic up primary fold, `O=C(COC(=O)c1ccco1)NCc1ccc(Cl)cc1` has the entry 0.96

The listing continues.
SMILES	RGS16-Gao HTS	PKD1 inh	GALR2 ag	INS promoter inh	INS promoter inh cell count	HSV replic up	HSV replic up primary fold
Nc1c(C(=O)Nc2cccc(Cl)c2Cl)sc2nc(-c3cccnc3)ccc12	96	3	-1.5	-100	123	i	0.9
O=C(Cn1cnc2c(cnn2-c2ccccc2)c1=O)c1ccc(Cl)cc1	100	-11	0.1	/	/	i	0.87
COC(=O)C1C(=O)c2c([nH]c(C(=O)OC3CCCC3)c2C)CC1C (centres undefined)	105	-6	-1.6	3	141	i	0.8
O=C(N/N=C/c1c[nH]c2ccc(Br)cc12)c1ccccn1	105	6	/	7	128	i	0.83
Cc1ccc(C(=O)N/C(=C/c2ccc(C(C)C)cc2)C(=O)NCCCN2CCOCC2)cc1	102	/	/	/	/	i	0.87
Cn1c(C(=O)NCCCN2CCc3ccccc3C2)cc2c(=O)n(C)c3ccccc3c21	102	-8	-1.6	/	/	i	1.1
O=C(NCc1ccccn1)c1ccc(CNS(=O)(=O)c2cccc(Cl)c2)cc1	116	-5	-0.6	/	/	i	1
CC(C)(C)NS(=O)(=O)c1ccc(OCC(=O)Nc2ccc3c(c2)OCCO3)cc1	97	-5	-2.2	-25	88	i	0.95
CN(C)S(=O)(=O)c1cccc2nsnc12	107	0	-3.8	21	152	i	0.89
NC(=O)NOCc1ncc(C(F)(F)F)cc1Cl	96	-5	-1.1	-24	112	i	0.99
COc1ccccc1CNc1ccc(CNc2ncn[nH]2)cc1	97	-7	/	-89	55	i	0.95
CC1CCCC(C)N1CC(O)COc1ccc(Cl)cc1 (centres undefined)	93	-11	0.6	/	/	i	1
COc1cccc2sc(N(CCCN(C)C)C(=O)C(c3ccccc3)c3ccccc3)nc12	106	-6	/	-111	79	i	0.61
CS(=O)(=O)N(CC(=O)N1CCN(c2ccc(F)cc2)CC1)C1CCCCC1	101	-10	-2.8	31	100	i	0.89
CC(=O)N1CCC(C(=O)Nc2nc(-c3ccccc3)ns2)CC1	/	1	-0.3	-22	127	i	1

An excerpt from above, reduced to HSV replic up primary fold and PKD1 inh.
canonical_smiles	HSV replic up primary fold	PKD1 inh
Cc1ccc2c(CSc3nncs3)cc(=O)oc2c1	0.79	-10
O=C(Nc1nc(-c2ccc(F)cc2)cs1)c1ccc(N2C(=O)CCC2=O)cc1	/	-8
NC(=O)NOCc1ncc(C(F)(F)F)cc1Cl	0.99	-5
CCN(CC)S(=O)(=O)c1ccc(C(=O)OCC(=O)Nc2ccc(-c3nc4ccc(C)cc4s3)cc2)cc1	0.85	-6

Further compounds
SMILES	RGS16-Gao HTS	PKD1 inh	GALR2 ag	INS promoter inh	INS promoter inh cell count	HSV replic up	HSV replic up primary fold
COC(=O)N1[C@H](Cc2ccccc2)C=C[C@]1(C)C(=O)O	64	-17	-2.1	-19	48	i	1.1
COC(=O)c1ccc(CSc2nc3ccc(S(=O)(=O)N4CCOCC4)cc3[nH]2)cc1	103	-6	-0.2	/	/	i	1
CCOC(=O)C1CCN(C(=O)c2ccco2)CC1	97	-9	-0.5	/	/	i	0.77
CCN(CC)S(=O)(=O)c1ccc(C(=O)OCC(=O)NCCN2C(=O)CSC2=O)cc1	104	-4	/	/	/	i	0.87
Cn1c(Cn2c(=O)sc3ccccc32)nnc1SCC(=O)N1CCCC1	105	0	-0.5	/	/	i	1.2
O=C(NC1CCCCC1)C(=S)NCc1ccccc1	106	1	/	/	/	i	0.9
NS(=O)(=O)c1ccc(NC(=S)NC(=O)c2cccc(Br)c2)cc1	101	4	/	/	/	i	1.1
COC(=O)c1ccc(Oc2ccc(C(C)(C)C)cc2)c([N+](=O)[O-])c1	113	8	0.1	24	128	/	/
CC(C)C(=O)Nc1ccc2c(c1)C(=O)N(CCC(=O)O)C2=O	88	-12	-0.4	-17	99	i	1.1
CC1CCN(Cc2cc(=O)oc3cc4c(cc23)CCCC4)CC1	100	/	/	/	/	i	1.1
CS(=O)(=O)N1N=C(c2ccco2)CC1c1ccc(Cl)cc1 (centres undefined)	102	-6	-0.7	/	/	i	0.96
COc1ccc(-c2cn3cccnc3n2)cc1NC(=O)c1ccc(Br)o1	93	1	0.5	-18	74	i	1.1
CCn1c(N)c(C(=O)NCC2CCCO2)sc1=S (centres undefined)	63	10	-2.9	/	/	i	1
Cc1ccc(-c2c[n+](CC(=O)Nc3cc(=O)n(C)c(=O)n3C)c3n2CCC3)cc1	99	2	-3.3	0	108	i	0.94
CCC/C=N/NC(=O)C1COc2ccccc2O1 (centres undefined)	41	4	/	-7	83	i	0.95

Of the compounds above, these contain a tert-butyl group.
SMILES	RGS16-Gao HTS	PKD1 inh	GALR2 ag	INS promoter inh	INS promoter inh cell count	HSV replic up	HSV replic up primary fold
CCC(C(=O)NC(C)(C)C)N(Cc1cccs1)C(=O)CNS(=O)(=O)c1ccccc1 (centres undefined)	99	/	/	/	/	i	0.92
CC(C)(C)NS(=O)(=O)c1ccc(OCC(=O)Nc2ccc3c(c2)OCCO3)cc1	97	-5	-2.2	-25	88	i	0.95
COC(=O)c1ccc(Oc2ccc(C(C)(C)C)cc2)c([N+](=O)[O-])c1	113	8	0.1	24	128	/	/

Next section
SMILES	RGS16-Gao HTS	PKD1 inh	GALR2 ag	INS promoter inh	INS promoter inh cell count	HSV replic up	HSV replic up primary fold
CC1=NC(C(F)(F)F)(C(F)(F)F)C2=C(CC(C)(C)CC2=O)N1Cc1ccco1	89	-3	-1.2	35	36	i	0.83
O=C(NNC(=O)c1sccc1-n1cccc1)c1cccs1	103	3	/	/	/	i	1
CCOc1ccc(-c2nnc(SCC(=O)Nc3ccc4c(c3)c3ccccc3n4CC)n2N)cc1	105	-9	-0.6	-21	42	i	0.9
COc1cccc(C2C(C(=O)c3cccs3)=C(O)C(=O)N2c2cc(C)on2)c1 (centres undefined)	98	1	-4.5	/	/	i	1
O=C1C=C(Nc2ccc(Cl)cc2)CC(c2ccc(Cl)cc2)C1 (centres undefined)	104	-5	-1.4	/	/	i	0.97
Cc1nnc(SCc2nc3ccccc3s2)n1-c1ccccc1	111	-2	-1.6	-44	110	i	1
CCn1c(/N=C/c2ccccc2NS(=O)(=O)c2ccc(C)cc2)nc2ccccc21	94	-4	-0.5	30	81	i	1.1
Cc1cc(C)n(CCC(=O)N/N=C/c2ccc(Cl)c([N+](=O)[O-])c2)n1	104	/	/	/	/	i	0.97
O=S(=O)(c1ccc(OCC(O)CNCc2ccco2)c(Cl)c1)N1CCOCC1 (centres undefined)	103	3	-0.7	/	/	/	/
CC(C)(C)c1ccc(OCCNC(=O)Cc2ccc(F)cc2)cc1	103	-7	-0.9	0	123	i	0.93
CCOC(=O)c1nn(-c2ccc3c(c2)OCCO3)cc1O	103	-2	/	/	/	i	0.96
COC(=O)CSC(=S)N1CCCC(C)C1 (centres undefined)	96	-3	/	/	/	i	1.2
Cc1ccc(C(=O)NCCSc2ccc(Cl)cc2)cc1[N+](=O)[O-]	116	7	-0.4	-15	112	i	0.96
CCCCN(CCCC)CP(=O)(c1ccccc1)c1ccccc1	205	2	-4.6	-14	126	i	1
COCCn1c(C)cc(C(=O)CSc2ccc3ccccc3n2)c1C	81	-2	-1.2	6	32	i	0.98
CCNC(=O)C1CC(=O)N(CCCc2ccccc2)C(=Nc2ccccc2)S1 (centres undefined)	98	/	/	/	/	i	0.97
